High-throughput results (PubChem)
HNF4A DNA FP = change in binding of human HNF4 alpha to DNA | P41235 | HNF4a-FITC DNA binding, fluorescence polarization, 1 h | activity change, % at 10 µM | 360,000 compounds, 0.3% hits; in the data active = activity change above about 30%, passing the limit was not always enough;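 note: controls were the assay level and a saturating level of protein; the project sought stronger binding though the title names inhibitors; some compounds called inactive have numbers as strong as hits; positive values seem to mean higher polarization but the record does not say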
RanGTP-Impb inh = inhibitors of RanGTP-importin-beta interaction, primary screen, biochemical, FRET, CFP-Ran, YFP-importin-beta, homogeneous. cell-free CFP-Ran/YFP-importin-beta FRET ratio. inhibition, % (test concentration not listed). 300,000 compounds, 1.1% hits;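 active = most replicates above 15%; inconclusive = exactly half above 15%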;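 note: 0% = DMSO wells and 100% = Ran loaded with GDP instead of GTP; wells of about 40 µL received 100 nL stock; the first replicate is given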
B2AR ag = activates human beta-2 adrenergic receptor causing internalization. response, % (concentration not given with the values). 340,000 compounds, 0.43% hits. P07550. Am2.2-beta2AR cells, FAP receptor internalization, flow cytometry; reference of the scale not given here. AID 504454;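 active = response above a set limit, near 3 SD of response in nonfluorescent compounds, cut at about 42% in these data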;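 note: stock transfer was 100 nL into about 11 µL; a reference agonist was the positive control; negative values mostly stem from fluorescent compounds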
ALR inh = human ALR oxidase inhibition via reduced H2O2; 290,000 compounds, 3.8% hits; inhibition, % (test concentration not listed); purified ALR, DTT oxidation, H2O2 HRP-luminol luminescence; P55789;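 active = mean and each replicate at 75% or more; inconclusive = only one of the two met; inactive = neither met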;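 note: stock transfer was 7.5 nL into about 7.5 µL; 0% = neutral wells and 100% = wells with inactivated enzyme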
Vif A3G = inhibitors of Vif binding to APOBEC3G peptide, primary screen, biochemical, TR-FRET, GST-Vif 1-94, biotin-A3G peptide, dose response retest (AID 1117319). TR-FRET GST-Vif / biotin-A3G peptide binding; higher % means a stronger effect; test concentration not given here; strong numbers were not always called active. inhibition, %, or IC50 in µM where a hit was titrated. 260,000 compounds, 0.57% hits;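 active = above the screen mean plus three standard deviations and confirmed in dose response; inconclusive = results disagree or hit not tested in dose response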;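 note: Vif residues 1-94 fused to GST binding biotinylated APOBEC3G peptide 110-148; 0% = full assay without inhibitor and 100% = GST in place of GST-Vif; retest series ran down from 100 µM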
Calb FLC = affects C. albicans growth with fluconazole. C. albicans CaCi-2 (fluconazole-resistant clinical isolate) + fluconazole, Alamar Blue growth, 48 h. growth inhibition, % (no concentration beside the values). 300,000 compounds, 0.57% hits;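 active = most replicates above 75%; inconclusive = exactly half above 75%; inactive = most below 75%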;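 note: all wells also contain fluconazole at 8 µg/ml as a sub-toxic cotreatment; 0% = median of DMSO wells and 100% = median of geldanamycin control wells; wells of about 8 µL received 7.5 nL stock; the first replicate is given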
LANA-H2B inh = blocks KSHV LANA binding to histone H2A/H2B | Q9QR71 | cell-free LANA-H2A/H2B peptide, fluorescence polarization | inhibition, % (test concentration not listed) | 320,000 compounds, 0.6% hits | AID 2629; in the data active = inhibition mostly above about 10%, no sharp cut-off; inactive = mostly below about 6.7%;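 note: stock transfer was 7.5 nL into about 10 µL; 0% = median of vehicle wells and 100% = median of positive control wells; one replicate is shown; the record names a cut of 25% in any replicate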
Target sequence (Q9QR71 whole entry, looked up): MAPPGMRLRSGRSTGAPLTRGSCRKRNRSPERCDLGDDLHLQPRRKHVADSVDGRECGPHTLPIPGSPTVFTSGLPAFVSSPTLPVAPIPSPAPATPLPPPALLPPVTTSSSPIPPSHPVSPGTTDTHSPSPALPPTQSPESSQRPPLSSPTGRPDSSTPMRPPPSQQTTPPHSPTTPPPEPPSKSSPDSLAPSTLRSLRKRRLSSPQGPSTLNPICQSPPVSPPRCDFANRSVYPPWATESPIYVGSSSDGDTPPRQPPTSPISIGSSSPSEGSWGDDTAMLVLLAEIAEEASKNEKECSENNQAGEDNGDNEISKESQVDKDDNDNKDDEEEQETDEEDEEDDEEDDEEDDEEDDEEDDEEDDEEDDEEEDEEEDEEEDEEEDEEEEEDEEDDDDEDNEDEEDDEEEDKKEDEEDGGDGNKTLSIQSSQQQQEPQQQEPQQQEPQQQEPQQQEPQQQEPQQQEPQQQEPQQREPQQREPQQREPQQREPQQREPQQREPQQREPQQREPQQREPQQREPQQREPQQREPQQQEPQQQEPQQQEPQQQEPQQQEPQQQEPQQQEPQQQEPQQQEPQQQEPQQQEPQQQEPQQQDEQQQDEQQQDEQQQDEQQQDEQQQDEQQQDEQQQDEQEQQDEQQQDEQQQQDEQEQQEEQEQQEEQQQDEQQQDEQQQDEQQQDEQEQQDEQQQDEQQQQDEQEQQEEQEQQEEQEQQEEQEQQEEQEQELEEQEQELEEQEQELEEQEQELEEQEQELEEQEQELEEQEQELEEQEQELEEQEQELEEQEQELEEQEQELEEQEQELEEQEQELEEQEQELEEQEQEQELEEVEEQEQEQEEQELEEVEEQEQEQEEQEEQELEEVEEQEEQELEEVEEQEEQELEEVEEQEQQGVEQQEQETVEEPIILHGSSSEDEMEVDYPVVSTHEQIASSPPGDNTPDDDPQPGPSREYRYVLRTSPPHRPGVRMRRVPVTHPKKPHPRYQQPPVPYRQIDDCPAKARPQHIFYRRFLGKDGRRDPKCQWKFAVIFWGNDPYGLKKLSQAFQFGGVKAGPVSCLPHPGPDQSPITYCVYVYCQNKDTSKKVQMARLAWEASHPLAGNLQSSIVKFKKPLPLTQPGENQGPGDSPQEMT
The depositor's hits bear a star; ? = inconclusive; nt = no result given.

The opening three records, to show the layout:
Value order – ALR inh, Calb FLC, B2AR ag, HNF4A DNA FP, RanGTP-Impb inh, LANA-H2B inh, Vif A3G
> COc1cc(C(C(=O)NCc2ccccc2)N(Cc2ccco2)C(=O)c2cnccn2)cc(OC)c1OC (centres undefined)
  -9, 7, -4, 1.2, 6.2, 0.1, nt
> O=C(COc1ccc([N+](=O)[O-])cc1)Nc1ccccc1C(=O)NC1CC1
  -7, nt, -4, 1.6, ?, 2.4, 6%
> COC(=O)C1=C(C(=O)OC)[C@@H]2N(C)c3ccccc3[C@@]23C[C@@H](C(=O)OC)N(C(C)=O)C3=N1
  -16, -4, 0, 0.3, 2.3, 1.9, nt

The whole of this part, previewed entries included:
Value order – ALR inh, Calb FLC, B2AR ag, HNF4A DNA FP, RanGTP-Impb inh, LANA-H2B inh, Vif A3G
> COc1cc(C(C(=O)NCc2ccccc2)N(Cc2ccco2)C(=O)c2cnccn2)cc(OC)c1OC (centres undefined)
  -9, 7, -4, 1.2, 6.2, 0.1, nt
> O=C(COc1ccc([N+](=O)[O-])cc1)Nc1ccccc1C(=O)NC1CC1
  -7, nt, -4, 1.6, ?, 2.4, 6%
> COC(=O)C1=C(C(=O)OC)[C@@H]2N(C)c3ccccc3[C@@]23C[C@@H](C(=O)OC)N(C(C)=O)C3=N1
  -16, -4, 0, 0.3, 2.3, 1.9, nt
> CC1=C2C3OC(=O)C(C)[C@@H]3CC[C@](C)(O)C2C2C3C4C5(C12)[C@H]1OC(=O)[C@@H](C)C1CC[C@]4(C)O[C@]5(C)[C@@H]3O (some centres undefined)
  4, -1, -10, -0.4, 1.2, -0.7, 12%
> CN(C)S(=O)(=O)c1ccc(C(=O)OCC(=O)Nc2ccc3c(c2)OCO3)cc1
  -3, nt, 3, -3.4, nt, 4.0, nt
> CCCN(C(=O)c1cc2c(s1)CCC2)c1c(N)n(Cc2ccccc2)c(=O)[nH]c1=O
  -4, -3, -1, -23, 3.3, -2.5, ?
> Cc1ccc(S(=O)(=O)N[C@H](C(=O)OCC(=O)NC(=O)NCc2ccco2)C(C)C)cc1
  -3, nt, 4, 1.1, nt, -4.4, 4%
> Cc1ccc(S(=O)c2snnc2C)cc1 (centres undefined)
  nt, -1, -11, 0.1, 1.0, 0.3, -6%
> COc1cc(NC(=O)Nc2ccccc2)c(OC)cc1NC(=O)CN1CCCCC1
  -16, -11, 3, 2.1, 9.0, 2.4, 3%
> CC(C)CN(C(=O)COC(=O)CCc1c[nH]c2ccccc12)c1c(N)n(Cc2ccccc2)c(=O)[nH]c1=O
  -17, -3, 4, 7.5, -1.9, 0.1, nt
> CCn1cnc2c1c(=O)n(Cc1ccc(C(=O)OC)cc1)c(=O)n2Cc1ccccc1
  -4, -1, 0, -0.5, 2.3, 2.5, -4%
> Cc1nnc(NC(=O)C2CC(=O)N(Cc3ccccc3)C2)s1 (centres undefined)
  -4, 1, 7, -7.5, 5.0, 3.2, nt
> CCOC(=O)N1CCN(Cc2nc3cc(NC(=O)C(C)C)ccc3n2CC)CC1
  -2, -3, -12, 1.7, 4.3, -2.3, -3%
> COc1ccc(N2CCN(C(c3cc4cc(C)ccc4[nH]c3=O)c3nnnn3Cc3ccccc3)CC2)cc1 (centres undefined)
  -17, 32, nt, -3.2, 0.5, -2.1, 18%
> COc1ccc(S(=O)(=O)N2CCCCC2)cc1NC(=O)CCNC(=O)c1ccc(Cl)cc1
  2, nt, 2, -1.2, nt, 2.2, -10%
> CCCOc1ccc(C(=O)NNC(=O)c2cccc(S(=O)(=O)N3CCN(C(C)=O)CC3)c2)cc1OC
  -10, 2, -5, -1.2, 5.3, 3.5, 4%
> CN(Cc1ccccc1)c1oc(COc2ccccc2F)nc1C#N
  -15, 26, 23, -0.3, 6.5, 0.4, -3%
> O=C(CN(CC1CCCO1)C(=O)CCC(=O)Nc1ccccn1)NCc1ccccc1 (centres undefined)
  -2, -2, 0, 3.5, -1.7, 2.7, -2%
> COc1ccc(S(=O)(=O)N(C)C)cc1NCC(=O)Nc1cccc2ccccc12
  -10, 0, -6, -0.6, 2.1, 1.6, nt
> Cc1ccc(C(=O)Nc2ccon2)cc1S(=O)(=O)N1CCOCC1
  -2, 2, -6, -3.0, 3.9, -14, 24%
> COc1ccc2sc(N(CCCN(C)C)C(=O)c3ccc(S(=O)(=O)N4CCCc5ccccc54)cc3)nc2c1
  -20, 46, 53*, 2.6, 3.2, -3.8, -2%
> COc1cc2nc(CN(CCC(C)C)Cc3nc4cc(OC)c(OC)cc4c(=O)[nH]3)[nH]c(=O)c2cc1OC
  -1, -15, -6, 1.5, 3.8, -1.7, 11%
> CSc1nccc(NC(=O)c2cccc(Br)c2)n1
  -4, -65, 5, 3.3, 2.6, -3.0, -8%
> C[C@@H]1CCC[C@H](C)N1Cc1nc(Cc2ccccc2Cl)no1
  6, 0, 5, 3.6, -3.8, 2.3, -2%
> Cc1nc(S/C(=C/c2ccc(OCc3ccc(C(=O)O)cc3)cc2)C(=O)O)n[nH]1
  6, -3, 20, -6.6, -0.5, -2.0, 12%
> COc1ccccc1C(=O)NCCC(=O)OCC(=O)Nc1ccc(S(N)(=O)=O)cc1
  1, nt, -3, -2.1, nt, 1.1, 0%
> CC(NC(=O)COc1cccnc1[N+](=O)[O-])c1ccc(F)cc1 (centres undefined)
  nt, -7, -12, 0.1, 5.4, 5.5, nt
> COc1cccc(CN(C)CC(=O)Nc2cc3oc4ccccc4c3cc2OC)c1
  -30, -6, 0, -0.6, 1.0, -2.5, nt
> Cc1cccc(SC2CCN(Cc3nc(CC4CC4)no3)CC2)c1
  -92, -2, 10, -1.6, -0.6, -4.6, 0%
> CCOC(=O)C1CCN(C(=O)Cc2c(F)cccc2Cl)CC1
  0, -7, 6, -1.1, -6.2, -3.9, -6%
> Clc1ccc(CN2CCSCC2)cc1Cl
  -7, 3, -3, -0.2, 4.4, -2.9, nt
> COc1cccc(-c2nc(CS(=O)(=O)CC(=O)NCC(C)c3ccccc3)c(C)o2)c1 (centres undefined)
  65, -5, 8, -0.6, 1.0, -3.4, nt
> COCCC(=O)Nc1ccc2c(c1)CN(C(=O)CCOC)CC2
  -3, -9, -3, -2.1, -0.7, 0.1, 1%
> CC(=O)c1cn(CCOc2cc(C)ccc2C)c2ccccc12
  -4, 2, 4, -3.4, -1.2, -0.8, nt
> CC(C)Cc1nnc(NC(=O)CCC(=O)N2CCN(c3ccccc3F)CC2)s1
  -1, 2, -2, -7.4, 154*, 3.1, nt
> C/C(=N\NC(=S)NC(C)C)c1cccc([N+](=O)[O-])c1
  8, 0, 1, 2.2, 1.6, -3.9, nt
> CCCCN(C)Cc1c(C)[nH]c2ccc(OCC)cc2c1=O
  -8, 4, 12, 2.4, 1.2, -3.6, -5%
> CC(C(=O)N1CCc2ccccc21)n1cccc1 (centres undefined)
  -10, 13, -1, 1.0, 0.2, -0.3, -3%
> COc1ccc(/C(C)=N/N2C(=O)c3ccccc3NC2c2ccc(O)c(OC)c2)cc1 (centres undefined)
  99*, -2, -17, -2.1, 1.4, -3.3, -4%
> Cc1cc(-c2nnc3sc(C4CCCCC4)nn23)n[nH]1
  -1, 30, -6, -0.1, -2.0, -0.8, 8%
> CC(=O)Nc1ccc(NC(=O)CSc2nnnn2-c2ccc(F)cc2)cc1
  98*, 3, 1, -4.6, 1.8, 2.0, 0%
> Cc1ccc(-c2cc(C(=O)NCCCn3ccnc3)c3cc(Br)ccc3n2)o1
  -2, nt, 15, -3.1, nt, -4.3, 19%
> CCOC(=O)c1c(C)[nH]c(C(=O)OCC(=O)c2ccc(OC)cc2OC)c1C
  -9, nt, 6, 4.2, 5.2, -10, -8%
> COc1ccc(NC(=O)CSc2ccc3nnc(-c4cccnc4)n3n2)cc1OC
  -20, -13, 3, -0.6, -4.1, -5.4, 4%
> N#Cc1nc(Cc2cccc3ccccc23)oc1NCCN1CCCCC1
  nt, ?, -4, -2.4, -3.2, 5.6, 12%
> CC(=O)c1ccc(N2CCN(S(=O)(=O)c3ccc4c(c3)NC(=O)CC(=O)N4)CC2)cc1
  -4, 1, -3, -5.0, 0.4, 3.1, -10%
> COc1ccc(N2CCN(C3CC(=O)N(Cc4ccccc4)C3=O)CC2)cc1 (centres undefined)
  92*, 2, 0, -1.7, 2.4, -3.5, 12%
> COC(=O)CS(=O)(=O)c1nnc([C@H](Cc2ccccc2)NC(=O)OC(C)(C)C)o1
  19, 13, 16, -0.9, -3.8, 3.0, -8%
> Cc1ccccc1OCCn1c(C)nc2ccccc21
  -9, 3, -13, -3.0, -1.1, -3.0, 0%
> C=CCc1cccc2cc(C(=O)Nc3ccccc3C(=O)O)c(=O)oc12
  nt, nt, 9, -2.9, nt, nt, 3%
> CCOc1cc(C(=O)Nc2ccccc2N2CCOCC2)ccc1OCC(=O)N1CCOCC1
  -2, nt, 1, 1.0, nt, 0.4, nt
> CCN(CC)CC(=O)Nc1c(C)cc(C(C)(C)C)cc1C
  2, 6, 8, -0.8, 1.1, -3.0, 0%
> Cc1cc(C)cc(OCc2ccc(C(=O)O)o2)c1
  18, 4, 4, 2.2, -0.9, -0.6, 9%
> O=C(c1ccc2c(c1)OCCO2)C1CCN(S(=O)(=O)c2ccccc2F)CC1
  -23, -3, -2, -2.8, 1.8, 4.5, -2%
> COc1cc2nc(C3CCC3)n(NC(=O)C3CCC3)c(=O)c2cc1OC
  -27, -9, -2, -2.8, 0.0, 3.3, -5%
> COc1cc(C(=O)ON=C2C=C(C)C(=O)C(C)=C2)cc(OC)c1OC
  57, 13, 15, -0.6, 2.5, -4.5, 7%
> O=c1[nH]c(NCCO)nc2ncn(Cc3ccccc3)c12
  nt, 32, 2, -3.4, 8.2, 0.1, 31%
> CCc1c(N)nc(N)nc1Nc1ccccc1Cl
  nt, nt, 0, -2.3, nt, nt, -11%
> Cc1ccc(S(=O)(=O)N2c3ccccc3OCC2c2ccccc2)cc1 (centres undefined)
  -2, 23, -4, -3.5, 0.4, -2.7, ?
> Cc1cc([N+](=O)[O-])ccc1NC(=O)C(C)N1CCN(c2ccccn2)CC1 (centres undefined)
  5, 25, -9, -4.1, 4.8, 0.0, nt

(further entries)
Value order – ALR inh, Calb FLC, B2AR ag, HNF4A DNA FP, RanGTP-Impb inh, LANA-H2B inh, Vif A3G
> O=C(COc1ccccc1Cc1ccccc1)Nc1cccc(S(=O)(=O)N2CCOCC2)c1
  -12, nt, -9, -4.4, nt, 2.4, nt
> CN(C)S(=O)(=O)N1CCN(S(=O)(=O)N(C)C)CC1
  -10, 3, 2, -0.8, 1.4, 14, 28%
> O=C(CSc1ccc2ccccc2n1)c1ccc2c(c1)OCO2
  ?, -7, 9, 1.1, 5.5, 4.7, 5%
> Cc1noc(C)c1CSc1ccc2ccccc2n1
  -5, 8, 0, 2.4, ?, -3.4, -2%
> O=C(CCC1CCCN(c2ncccn2)C1)NCc1ccc(F)c(F)c1 (centres undefined)
  1, 4, -4, -3.0, -4.3, 3.8, nt
> O=C(Cn1c(-c2ccccn2)nc2ccccc21)N/N=C/c1ccccn1
  26, -2, -7, -0.7, 1.5, -2.2, 3%
> COc1ccc(NS(=O)(=O)c2cccc(C(=O)Nc3ccccc3C(=O)O)c2)cc1
  7, 7, -2, 1.4, -1.0, 1.6, nt
> Cc1cccc(C(=O)N(Cc2nc3ccccc3c(=O)[nH]2)C2CCCCC2)c1
  -1, 2, 2, -2.0, 0.9, -3.2, -3%
> COC(=O)c1cccc(NC(=O)Cc2nc(-c3ccccc3)sc2-c2ccc(C)cc2)c1
  nt, 16, -26, 2.5, 0.2, 2.1, nt
> Cc1nn(CC(=O)Nc2ccc(F)cc2)c(=O)c2ccccc12
  -9, 3, -8, -1.2, 0.0, -4.3, -23%
> CCN(CC)c1ccc(S(=O)(=O)N2CCOCC2)cc1NC(=O)COC(=O)C1=COCCO1
  nt, nt, 1, 2.0, nt, nt, 3%
